VDR inhibitor = blocks the human vitamin D receptor | P11473 | VDR-SRC2-3 peptide fluorescence polarization, 2 h | Potency, µM, for the others: max response, negative = inhibition, hits mostly inhibitors | actives 0.93% (n = 400,000) | AID 504847; active = well fitted inhibition curve with a large enough effect; inconclusive = small, poorly fitted or top-dose-only effect, or another doubt; inactive = no such curve, though single readings can be large or run the other way; note: series mostly up to about 120 µM
Target sequence (P11473 whole entry, looked up): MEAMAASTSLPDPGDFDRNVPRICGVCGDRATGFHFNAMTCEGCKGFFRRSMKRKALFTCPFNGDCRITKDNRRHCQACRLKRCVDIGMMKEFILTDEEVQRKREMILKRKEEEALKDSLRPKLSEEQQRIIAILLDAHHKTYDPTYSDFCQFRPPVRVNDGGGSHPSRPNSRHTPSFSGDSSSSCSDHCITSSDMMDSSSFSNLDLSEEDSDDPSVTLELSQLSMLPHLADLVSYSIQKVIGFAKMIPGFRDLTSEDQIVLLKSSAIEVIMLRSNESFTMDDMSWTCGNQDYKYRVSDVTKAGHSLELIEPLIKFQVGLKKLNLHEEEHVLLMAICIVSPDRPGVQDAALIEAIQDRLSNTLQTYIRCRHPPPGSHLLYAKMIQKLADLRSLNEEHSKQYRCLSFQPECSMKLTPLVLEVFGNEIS
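Fluorescence polarization assay measuring small-molecule disruption of VDR binding to the coregulator peptide SRC2-3. Compounds were pin-transferred (23 nl) into the reagent mix and incubated 2 h at room temperature before reading.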
* = called active by the depositor; ? = inconclusive; & = joins results of further samples; [ ] = remark or other dose. % is set by controls: 0 for no effect and ±100 for the full control effect; potency is the fitted concentration of half-maximal effect. A portion of the library, so the mix of outcomes need not match the whole.

SMILES	VDR inhibitor
O=C(NCCO)/C(=C\c1ccc(Br)cc1)NC(=O)c1cccs1	-7.6%
COc1cc(/C=C2\CCCc3c2nc2ccccc2c3C(=O)O)cc(Cl)c1O	16.6%
Cc1ccccc1NC(=O)/C(=C/c1cccs1)NC(=O)c1ccco1	-1.7%
COc1ccc(OC)c(CCNc2ncnc3onc(-c4ccc(Cl)cc4)c23)c1	8.6%
CC(C)(C)OC(=O)C(C1NC(C(=O)O)C(C)(C)S1)N1C(=O)c2ccccc2C1=O (stereo not given)	2.6%
CCOc1ccccc1/C=N/NC(=O)c1nnn(-c2nonc2N)c1CN1CCCC1	-11.2%
Cc1ccc2c(c1)c1ncnc(N3CCOCC3)c1n2C	7.4%
O=C(Nc1ccc(Cl)cc1C(=O)NCC1CCCO1)c1ccco1 (stereo not given)	7.6%
CCOc1ccc(Cl)cc1S(=O)(=O)NC1CCCC1	-9.5%
CCOC(=O)N1CCN(C(=O)COc2ccc3c(c2)C(=O)CC2(CCN(C(C)=O)CC2)O3)CC1	5.4%
Nc1ccc(C(=O)Oc2ccccc2)c(O)c1	0.4%
CCn1c2ccccc2c2cc(NC(=O)CSc3nnc(-c4cccc(F)c4)o3)ccc21	0.9%
O=C(Nc1ccsc1C(=O)O)c1cccc(C(F)(F)F)c1	-10.5%
CCOC(=O)CSc1nnnn1-c1cc(OC)ccc1OC	-19.4%
Cc1nnnn1/C(=C\c1ccccc1)C(=O)OCC(=O)NC(C)(C)C	?
O=C(COn1nnc2ccc(Cl)cc21)NC12CC3CC(CC(C3)C1)C2	2.2%
Cc1c(NC(=O)Nc2ccccc2)c(=O)n(-c2ccccc2)n1C	-11.6%
CC(NC(=O)CNC(=O)c1sc2ccccc2c1Cl)c1cccnc1 (stereo not given)	4.5%
CCCn1nnc(NC(=O)c2cccc(OCC(C)C)c2)n1	16.2%
Cc1cc(C(F)F)n2nc(C(=O)Nc3cccc(S(=O)(=O)N4CCOCC4)c3)nc2n1	-10.3%
NS(=O)(=O)c1ccc(CCNC(=O)c2ccc(Cl)s2)cc1	-9.3%
Cc1[nH]n(-c2ccccc2)c(=O)c1N=Nc1ccccc1	26.6%
COc1ccc(C(=O)Nc2cccc(/C(C)=N/NC(=O)c3ccc([N+](=O)[O-])c(C)c3)c2)cc1OC	-3.4%
Cc1ccc(CC(=O)Nc2cc(C)ccn2)cc1	19.4%
COc1ccc(S(=O)(=O)N2c3ccccc3OCC2C(C)(C)C)cc1 (stereo not given)	-9.6%

Following part.
SMILES	VDR inhibitor
CCC(C)NC(=O)c1sc2nc(C)c(C(=O)Nc3ccc(C)cc3C)c(-c3ccc(NC(C)=O)cc3)c2c1N (stereo not given)	-7.2%
O=C(/C=C/c1ccc(-c2ccccc2[N+](=O)[O-])o1)c1ccccc1	-19.8%
Cc1ccc(S(=O)(=O)c2nc(-c3ccccc3)oc2N2CCCC2)cc1	?
COc1ccc(C2NC(=O)NC(C)=C2[N+](=O)[O-])cc1 (stereo not given)	4.9%
CCC(C)NC(=O)CSc1nc2cc3c(cc2c(=O)n1CCCC(=O)NCc1ccc2c(c1)OCO2)OCO3 (stereo not given)	9.1%
CN(Cc1cnc2nc(N)nc(N)c2n1)c1ccc(C(=O)NC(CCC(=O)O)C(=O)O)cc1C(F)(F)F (stereo not given)	22.2%
O=C(NC1CCCc2ccccc21)c1ccccc1Cl (stereo not given)	2.8%
COc1ccc(N2CCN(CCCNC(=O)c3ccc4nc(Cc5ccccc5)oc4c3)CC2)cc1	-1.6%
Cc1cc(C)n(-c2ccccc2C#N)n1	-13.4%
CCc1nc(SCc2cccnc2)c(C#N)cc1C	-12.6%
CCN(CC)c1ccc2cc(C(=O)Nc3ccccn3)c(=O)oc2c1	6.0%
Cc1cc(C)c2nc(N3CCCN(C(=O)c4cnccn4)CC3)c(C#N)cc2c1	-8.3%
CCn1c(SCC(=O)Nc2cc(C)ccc2F)nnc1-c1ccccc1O	-23.3%
O=c1c(F)cn(C2CCCO2)c(=O)n1Cc1c(F)cccc1Cl (stereo not given)	17.8%
O=C(COc1ccc(Cl)cc1Cl)NC(=O)c1ccccc1	-8.0%
Cc1cccc(NC(=O)C2CCCN2S(=O)(=O)c2ccc(Cl)cc2)n1 (stereo not given)	8.5%
CCOc1ccc(NC(=O)CNS(=O)(=O)c2ccc(Br)s2)cc1	-9.8%
CCOC(=O)NC(=O)COC(=O)c1ccc(Sc2ncn[nH]2)c([N+](=O)[O-])c1	-9.8%
O=C(O)c1cccc(Cn2c(Cl)c(/C=N/NC(=O)c3ccccc3)sc2=O)c1	-6.9%
O=C(Oc1cccc(Br)c1)c1cccnc1	-1.9%
O=C(c1ccc2c(=O)n3c(nc2c1)CCCCC3)N1CCN(c2ccc(F)cc2)CC1	15.4%
CN(CC(=O)Nc1cccc(F)c1)C(=O)/C=C/c1cc(Br)ccc1OC(F)F	-11.1%
CC1CCCC2(C1)NC(=S)N(c1ccccc1)N2 (stereo not given)	?
O=C(CC1C(=O)NCCN1CC(c1ccccc1)c1ccccc1)NCC1CCOCC1 (stereo not given)	-18.6%
Cc1ccc2oc(=O)c3cnn(CC(=O)Nc4cc(-c5cccc(F)c5)no4)c3c2c1	-17.0%

In another format: results already given
Cc1ccc2oc(=O)c3cnn(CC(=O)Nc4cc(-c5cccc(F)c5)no4)c3c2c1
  VDR inhibitor: -17.0%

O=C(O)c1cccc(Cn2c(Cl)c(/C=N/NC(=O)c3ccccc3)sc2=O)c1
  VDR inhibitor: -6.9%

O=C(Oc1cccc(Br)c1)c1cccnc1
  VDR inhibitor: -1.9%

Next section
SMILES	VDR inhibitor
Cc1c(Cl)cccc1NC(=S)N1CCN(S(=O)(=O)c2cccs2)CC1	-5.9%
COc1ccc(CCNC(=O)CCCn2nc(C)c3sc4ccccc4c3c2=O)cc1OC	10.5%
COc1ccc(-c2nc(C)ncc2-c2ccc(Cl)cc2)c(O)c1	10.3%
N#CCC(=O)Nc1ccc(C(=O)OCC(=O)N2CCN(C(=O)c3ccco3)CC2)cc1	-6.3%
Cc1ccc(OCCC(=O)NNC(=O)c2ccccc2F)cc1	-3.1%
CC1=C(C(=O)Nc2ccc(Cl)cc2)C(c2ccc(C(F)(F)F)cc2)n2nnnc2N1 (stereo not given)	-16.0%
COCCN1C(=O)c2[nH]nc(-c3ccccc3O)c2C1c1ccc(OCc2ccccc2)c(OC)c1 (stereo not given)	-0.2%
CCOC(=O)N1CCN(C(=O)c2cc3cc(C)ccc3[nH]2)CC1	?
CC(=O)c1c(C)[nH]c(C(=O)OCC(=O)NCc2ccc(Cl)cc2)c1C	0.4%
Cc1ccccc1NC(=O)c1sc2nc[nH]c(=O)c2c1C	-0.4%
COc1ccc(-c2noc(CCC(=O)N3CCN(c4cccc(OC)c4)CC3)n2)cc1	-5.4%
COC(=O)c1ccsc1NC(=O)CCc1ccccc1	14.2%
CCCCn1c(N)c(N(C)C(=O)c2cc3c(F)cccc3s2)c(=O)[nH]c1=O	-8.5%
CSc1ccccc1NC(=O)c1ccccc1	10.7%
CC1(C)Cc2c(c(N3CCOCC3)nc3sc4c(NCc5ccco5)nnnc4c23)CS1	0.9%
COc1ccc(-c2nnn(CC(=O)N(CCN3CCOCC3)C(C(=O)NC3CCCC3)c3ccco3)n2)cc1 (stereo not given)	-10.5%
Cc1cccc(-n2c(SCC(=O)Nc3ccc(C)c(C)c3)nc3n[nH]c(C)c3c2=N)c1	3.1%
Cc1c(Cl)c([N+](=O)[O-])nn1CC(=O)N1CCCC1	16.8%
CCCN(C(=O)c1cc2c(s1)-c1ccccc1OC2)c1ccc(C(C)C)cc1	-7.1%
O=C(COC(=O)/C=C/c1ccccc1)Nc1cccc(Oc2ccccc2)c1	-7.4%
O=C(NC(=S)Nc1ccc(S(=O)(=O)Nc2nccs2)cc1)c1ccc(F)c(F)c1	-14.1%
Cc1cc(C)nc(NC(=O)c2ccc(Cl)cc2)n1	13.9%
Cc1ccc(NC(=O)CN(C)C(=O)CSc2nc3ccccc3c(=O)n2CCO)cc1	-13.1%
Cc1cccc(N2CCN(c3ccc(C(=O)O)cc3NC(=O)c3ccccc3F)CC2C)c1 (stereo not given)	1.5%
CCC1SC2=NC(C)=C(C(=O)OC)C(c3ccc(C)cc3)N2C1=O (stereo not given)	5.1%

Random excerpt: 3 records from the list.
SMILES	VDR inhibitor
Cc1cc(C)nc(NC(=O)c2ccc(Cl)cc2)n1	13.9%
O=C(COC(=O)/C=C/c1ccccc1)Nc1cccc(Oc2ccccc2)c1	-7.4%
O=C(NC(=S)Nc1ccc(S(=O)(=O)Nc2nccs2)cc1)c1ccc(F)c(F)c1	-14.1%

The results go on.
SMILES	VDR inhibitor
COc1cccc(C(=O)Nc2c3c(nn2-c2ccc(Cl)cc2)CS(=O)(=O)C3)c1	15.6%
COC(=O)c1cc(S(=O)(=O)N2CCN(c3ccc(F)cc3)CC2)cn1C	16.3%&6.3%
O=C(O)c1ccc(-n2nnnc2SCc2ccccc2Br)cc1	5.2%
CCCCCCCCCCCCCCCC(=O)N[C@@H](COP(=O)(O)O)C(=O)O	12.6µM*
CCOc1ccc(C(=O)NC2CCN(C(=S)NCc3ccco3)CC2)cc1	-1.4%
Cc1cccc(OCCN2C(=O)C(=O)c3cccc(C)c32)c1	?
O=C(NNc1ncnc2ccccc12)c1cccc(Cl)c1	0.1%
COc1ccc(-c2csc(NC(=O)CCNC(=O)c3ccco3)n2)cc1OC	-16.9%
Cc1oc2ccc(OC(=O)N3CCOCC3)cc2c1C(=O)OC(C)C	-14.1%
CNC(=O)c1c(NC(=O)c2ccc(S(=O)(=O)N3CCCC(C)C3)cc2)sc2c1CCC2 (stereo not given)	3.0%
CC(C)Cn1c(N)c(C(=O)COC(=O)c2cc(S(=O)(=O)N3CCOCC3)ccc2Br)c(=O)n(C)c1=O	2.6%
N#Cc1c(NC(=O)CCn2cnc3ccccc3c2=O)oc(-c2ccccc2)c1-c1ccccc1	-20.4%
O=C(c1ccccc1[N+](=O)[O-])N1CCCN(C(=O)c2ccccc2[N+](=O)[O-])CC1	2.1%
CCCc1cc(C(=O)Nc2ccn(Cc3ccc(C)cc3)n2)no1	10.3%
CCC(=O)N1CCc2cc(Br)cc(S(=O)(=O)N3CCCC(C(=O)Nc4cccc(F)c4)C3)c21 (stereo not given)	-7.9%
O=C(Nc1ccccc1)Nc1ccccc1NS(=O)(=O)c1cccs1	-4.4%
COc1ccc(S(=O)(=O)N2CCCN(CC(=O)Nc3ccc(NC(C)=O)cc3)CC2)cc1	21.3%&-11.0%
O=C(NCCN1CCCOC1=O)C(=O)NCCN1CCCOC1=O	-7.5%
CCOC(=O)c1cc(-c2ccccc2)sc1NC(=O)C(C)N1C(=O)NC(C)(c2ccc(Cl)cc2)C1=O (stereo not given)	-3.1%
Cc1c(Cl)cccc1-n1ncc(C(=O)Nc2ccc(F)cc2F)c1C1CCN(C(=O)OC(C)(C)C)CC1	0.9%
O=C(COC(=O)c1cccc(NS(=O)(=O)/C=C/c2ccccc2)c1)Nc1ccccc1OC(F)F	34.8%[activator]
Cc1nn(C)c(=O)n1-c1ccc(Oc2ccccc2)cc1	-5.3%
O=C(CCC1N=C2c3ccccc3N=C(SCc3ccccc3Cl)N2C1=O)NCCc1ccccc1 (stereo not given)	-4.7%
[O-][n+]1c2c(nn1-c1ccc(Cl)c(Cl)c1)-c1nonc1CC2	15.0%
CC1CN(Cc2ccccc2)C(=O)N(c2ccccc2)C1=O (stereo not given)	0.7%

Later entries
SMILES	VDR inhibitor
CC(=O)Nc1cc(C(C)(C)C)c(O)c(C(C)(C)C)c1	-2.4%
O=C(/C=C/c1ccccc1[N+](=O)[O-])NCc1ccccc1Cl	-6.7%
COc1ccc(-c2cc(C(=O)N3CCN(c4ncccn4)CC3)c3ccccc3n2)c(OC)c1	-15.0%
COC(=O)C1=C(N)c2c(F)cccc2C1(C#N)c1ccccc1 (stereo not given)	-3.3%
O=S(=O)(c1ccccc1)N1CCC2(CCN(Cc3ccccc3)CC2)CC1	1.6%
CCN1CCN(C(=O)c2sc3ncnc(N4CCc5ccccc5C4)c3c2C)CC1	-15.0%
O=c1[nH]c2cc3c(cc2cc1CN(Cc1nnnn1CC1CCCO1)C1CCCCC1)OCO3 (stereo not given)	0.3%
Cc1cccc(Nc2ncnc3onc(-c4cccc(Cl)c4)c23)c1	-2.5%
COc1ccc2cc(C#N)c(N3CCOCC3)nc2c1	-10.3%
COc1cccc(-c2nnc(SCc3ccc(C#N)cc3)n2Cc2ccco2)c1	-14.5%
C[C@H]1CC[C@@]2(O[C@@H](CCO)C[C@@H](O)[C@@H]2O)O1	13.0%
COc1ccc(/C=N/n2cc(-c3ccc(OC)cc3)nc2N)cc1	-14.9%
Cc1cccc(COCC(Cc2ccccc2)N2CCN(C(=O)c3ccc(C(F)(F)F)cc3)CCC2=O)c1 (stereo not given)	-12.8%
O=C(Nc1ccncc1)c1ccc(-c2ccccc2)cc1	0.7%
Cn1c(SCc2cc(=O)[nH]c3ccccc23)nnc1-c1ccco1	3.8%
CCOc1nc2cnccc2n(CC(=O)Nc2cccc(C)c2)c1=O	-0.4%
O=C(Nc1nc2c(s1)CCCC2)c1ccc2ncsc2c1	-9.1%
CCN(C(=O)Cn1nc2c3cc(F)ccc3n(Cc3cccc(C)c3)cc-2c1=O)c1cccc(C)c1	5.2%
COc1ccccc1OCC(=O)Nc1ccc2c(c1)n(C)c(=O)n2C	7.1%
COc1ccc([C@H]2Oc3cc(O)cc(O)c3C(=O)C2[C@@H]2C(=O)c3c(O)cc(O)cc3O[C@@H]2c2ccc(OC)cc2)cc1 (stereo not given in full)	-9.5%
CCCCN(CC)CCCNC(=O)C1CCN(c2nc3ccc(CC)cc3s2)CC1	-2.8%
O=C(COC(=O)c1ccc(O)cc1O)c1ccc2c(c1)OCCO2	7.8%

Compound activity: PubChem BioAssay, National Center for Advancing Translational Sciences (NCATS)
